# LASV entry inh: qHTS for Inhibitors of binding or entry into cells for Lassa Virus; Lassa virus pseudotype entry inhibition, cell reporter; control for the full effect not named in the record; Potency, µM (highest dose often 37.9 µM), for the others: at the top dose activity change, negative = inhibition, hits mostly inhibitors; 300,000 tested, 1.2% active; AID 540256, 2011; active means well fitted inhibition curve with a large enough effect; inconclusive means small, poorly fitted or top-dose-only effect, or effect the other way; inactive means flat fitted curve, though single readings scatter; tested in HEK293 cells; also: % is scaled to controls: 0 for no effect and ±100 for the full control effect; nearly all actives have a fitted effect of over 50% in size; luciferase read-out
# SARS PLpro yeast: qHTS of Yeast-based Assay for SARS-CoV PLP; S. cerevisiae expressing SARS-CoV PLpro, growth rescue; control for the full effect not named in the record; Potency, µM (doses to about 32.9 µM), for the others: at the highest dose activity, positive = growth rescue; 330,000 tested, 0.19% active; AID 485353, 2010; active means well fitted rising curve with a large enough effect; inconclusive means small, poorly fitted or top-dose-only effect; inactive means no such curve, though single readings can be large or run the other way; also: 0% is about no effect; nearly all actives have a fitted effect of over 55% in size; growth read by luminescence after 48 h
# StopGo reporter: High Throughput Screening for Foot and Mouth Disease Virus Antivirals; human cells with a luciferase reporter of 2A StopGo recoding; control for the full effect not named in the record; Potency, µM (titrated, usually from 57.9 µM), without a hit: top-dose signal change, negative = less light; 410,000 tested, 1.2% active; active = well fitted falling curve with a large enough effect; inconclusive = small, poorly fitted or top-dose-only effect; inactive = no such curve, though single readings can be large or run the other way; tested in HEK293T cells; also: % is scaled to controls: 0 for no effect and ±100 for the full control effect; nearly all actives have a fitted effect of over 45% in size; luciferase light after 4 h
# Cruzain Triton: qHTS Assay for Promiscuous and Specific Inhibitors of Cruzain (with detergent). Cruzipain (Trypanosoma cruzi), P25779. purified cruzain, Z-FR-AMC fluorescence, 0.01% Triton. Potency, µM, inactives show max response, negative = inhibition, most hits filed as inhibitors. 200,000 tested, 0.43% active. AID 1478, 2009;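 also: plate controls were neutral wells for no effect and buffer without enzyme for full effect; nearly all actives have a fitted effect of over 40% in size; top concentration of the series not given in the record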
# Target sequence (P25779 123-467 limits assumed): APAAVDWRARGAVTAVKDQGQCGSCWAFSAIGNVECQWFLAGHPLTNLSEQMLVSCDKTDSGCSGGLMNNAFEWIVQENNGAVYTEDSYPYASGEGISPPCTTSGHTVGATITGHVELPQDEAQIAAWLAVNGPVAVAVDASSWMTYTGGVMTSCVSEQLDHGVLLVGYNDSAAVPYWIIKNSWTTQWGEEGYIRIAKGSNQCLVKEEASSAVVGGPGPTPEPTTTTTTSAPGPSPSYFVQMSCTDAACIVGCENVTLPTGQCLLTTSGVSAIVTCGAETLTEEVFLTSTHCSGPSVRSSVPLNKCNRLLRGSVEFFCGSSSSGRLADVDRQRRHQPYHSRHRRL
#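 15 min RT preincubation of 1.5 nM cruzain with compound, then 2 uM Z-FR-AMC added; kinetic AMC fluorescence, 60 s delta. Triton X-100 0.01%, pH 5.5.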
# Cruzain noTriton: qHTS Assay for Promiscuous and Specific Inhibitors of Cruzain (without detergent). purified cruzain, Z-FR-AMC fluorescence, no detergent. Cruzipain (Trypanosoma cruzi), P25779. 200,000 tested, 2.3% active. Potency, µM, without a hit: max response, negative = inhibition, hits mostly inhibitors;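 also: plate controls were enzyme without inhibitor for no effect and buffer without enzyme for full effect; nearly all actives have a fitted effect of over 40% in size; top concentration of the series not given in the record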
#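 Purified cruzain at 1.5 nM, pre-incubated 15 min with compound at room temperature in 100 mM sodium acetate pH 5.5, 5 mM DTT, 0.00005% Triton X-100. Reaction started with 2 uM Z-FR-AMC; AMC fluorescence increase over 60 s gives rate.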
# MARV entry inh: qHTS for inhibitors of binding or entry into cells for Marburg Virus. Marburg virus pseudotyped entry inhibition, cell reporter; control for the full effect not named in the record; about a third of the inactives were read at about 46 µM. 300,000 tested, 1.8% active. Potency, µM (titrated, usually from 37.8 µM), for inactives: at the highest dose activity change, negative = inhibition, most hits filed as inhibitors; active = well fitted inhibition curve with a large enough effect; inconclusive = small, poorly fitted or top-dose-only effect, or effect the other way; inactive = flat fitted curve, though single readings scatter; tested in HEK293 cells; about a fifth of its hits are not listed in these tables; also: % is scaled to controls: 0 for no effect and ±100 for the full control effect; luciferase read-out
# RE007 growth inh: qHTS Assay for Inhibitors of the HIV-1 protein Vpr; S. pombe RE007 Vpr strain, BacTiter-Glo ATP luminescence, 24 h; control for the full effect not named in the record; Potency, µM (top dose mostly 92.2 µM), inactives show at the top dose activity change, negative = less growth; 360,000 tested, 0.21% active; AID 651644, 2012; active = well fitted falling curve with a large enough effect; inconclusive = small, poorly fitted or top-dose-only effect; inactive = no such curve, though single readings can be large or run the other way;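 also: % is scaled to controls: 0 for no effect and ±100 for the full control effect; nearly all actives have a fitted effect of over 50% in size; the assay follows cell death caused by Vpr and the record does not say whether a fall means rescue or toxicity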
#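 Fission yeast RE007 carrying one integrated HIV-1 vpr copy, seeded at OD 0.01 in PMG+AL medium with 23 nL pinned compound. Grown 24 h at 30 degrees; viability read by BacTiter-Glo luminescence after 5 min.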
# NS1 inh: qHTS Assay for Inhibitors of Influenza NS1 Protein Function; S. cerevisiae slowed by influenza A NS1, growth recovery by OD600; Potency, µM (series often up to 46.1 µM), for inactives: at the highest dose activity, positive = more growth; 270,000 tested, 0.4% active; AID 2326, 2010; active means well fitted rising curve with a large enough effect; inconclusive means small, poorly fitted or top-dose-only effect; inactive means no such curve, though single readings can be large or run the other way; also: nearly all actives have a fitted effect of over 50% in size
#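 OD600 was taken as the measure of yeast growth restored by compound in an NS1-expressing S. cerevisiae strain. Cells had been washed out of glucose medium and diluted 1:100 into galactose -URA medium, pH 6.0.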
# * marks the source's active call; other numbers are inactive results; ? = inconclusive; · = not tested or not shown; & = joins results of further samples; [ ] = another dose, or the depositor's remark. Unless noted, calls follow the shape of the dose curve; as a rule, active = well fitted curve in the direction sought with a large enough effect; inconclusive = small, poorly fitted or top-dose-only effect, or another doubt; inactive = no such curve, though single readings can be large; an effect the other way counts as inactive or inconclusive. Potency is read from the fitted curve at half-maximal effect.
compound	RE007 growth inh	SARS PLpro yeast	NS1 inh	Cruzain noTriton	Cruzain Triton	StopGo reporter	MARV entry inh	LASV entry inh
Cc1nn(-c2ccccc2)c(-n2cccc2)c1C(=O)NCCCN1CCN(c2ccccc2F)CC1	·	·	·	-9%	-1.4%	-21%	?	?
Cc1cccc(CS(=O)(=O)Cc2ccc(C(=O)NC3CCCCCC3)o2)c1	-1%	?	1%	·	·	-9%	·	·
O=C(CCNC(=O)c1ccccc1Cl)Nc1cc(C(F)(F)F)ccc1Cl	7%	9%	0%	2%	-3.9%	-16%	-9%	?
O=C(O)CN1C(=O)SC(Nc2ccc(Cl)cc2)C1=O (centres undefined)	11%	-2%	3%	-9%	2.8%	-16%	?	11%
CCSCCNC(=O)c1cncc(Br)c1	-1%	-6%	-4%	-7%	-1.2%	-11%	-1%	3%
Cc1cc(OCC(=O)NNC(=O)CCc2ccccc2)ccc1Br	-3%	10%	4%	·	·	-2%	3%[46.1 µM]	-1%[46.1 µM]
c1ccc(N2CCN(Cc3ccsc3)CC2)nc1	-3%	0%	-6%	8%	6.7%	7%	20%	-2%
COc1cccc(C(=O)COc2cccc(NC(=O)c3ccco3)c2)c1	11%	-1%	-3%	·	·	-11%	?	-13%
CC(=O)c1ccc(NS(=O)(=O)c2cc3c(cc2C)N(C(C)=O)CCO3)cc1	-2%	-8%	3%	·	·	31%[activator]	?	15%[46.1 µM]
COCCNC(=O)c1cc2sc3ccccc3c2s1	-26%	-15%	-55%	-1%	-5.0%	34%[activator]	?	-8%
O=C(c1ccco1)N1CCCC(c2nc3c(nnn3Cc3ccc(Cl)cc3Cl)c(=O)[nH]2)C1 (centres undefined)	-6%	-5%	11%	·	·	-25%	7%[46.1 µM]	·
COc1ccc(Br)cc1/C=N/NC(=O)c1cccc(S(=O)(=O)N2CCOCC2)c1	3%	1%	·	·	·	-16%	-4%[46.1 µM]	-23%[46.1 µM]
O=C(Nc1ccc2sccc2c1)c1ccc(Cl)s1	6%	-3%	-41%	-4%	-3.2%	31%[activator]	0%	·
Cc1c(NC(=O)CN2CCN(c3ccccc3)CC2)c(=O)n(-c2ccccc2)n1C	23%	-8%	5%	-14%	9.0%	-26%	-7%	-2%
O=C(Nc1ccc(OC(F)F)cc1)c1cc(S(=O)(=O)N2CCOCC2)ccc1N1CCCC1	14%	·	·	·	·	-28%	-11%	2%
Cc1ccc(Nc2ncc3c(=O)[nH][nH]c(=O)c3n2)cc1	-6%	·	·	·	·	22%	-4%[46.1 µM]	20%[46.1 µM]
Nc1ccc(C(=O)N2CCCC2)cc1	-4%	4%	2%	4%	-1.4%	0%	-16%	-1%
Cc1c(NCc2ccncc2)cccc1C(=O)O	-18%	1%	25%	·	·	-1%	-4%	9%
COc1cccc2[nH]c3ccccc3c(=O)c12	9%	-8%	-112%	·	·	0%	·	·
CC(NC(=O)c1ccncc1)C(C)(C)C (centres undefined)	0%	1%	6%	-5%	4.8%	14%	29%	2%
CSc1nncn1/N=C/c1cc(Cl)ccc1F	2%	9%	-42%	-2%	-0.8%	16%	14%	-5%
Cn1c(=O)n(CCO)c(=O)c2c1nc(Br)n2Cc1ccccc1	1%	12%	13%	·	·	-5%	·	·
CCn1cc(S(=O)(=O)CC(=O)NC2CCCCC2)c2ccccc21	1%	3%	-3%	-7%	0.4%	9%	9%	0%
O=C(CCC(=O)NNC(=O)Nc1cccc(Cl)c1)NCc1ccccc1	-3%	-1%	·	·	·	-11%	-5%	12%
Cc1ccnc(NC(=O)CCC(=O)N(CC(=O)NCC2CCCO2)Cc2ccc(F)cc2)c1 (centres undefined)	-4%	7%	-9%	-2%	7.1%	-14%	12%	-2%
CCC1(c2ccc(Cl)cc2)NC(=S)N(c2ccc(C)cc2)N1 (centres undefined)	31%	-31%	-34%	5%	-6.4%	38%[activator]	?	5%
c1cncc(-c2nn3c(Cn4nnc5ccccc54)nnc3s2)c1	-3%	2%	?	-17%	-1.1%	22%	3.3µM*	0%
CC1(C)Cc2c(c(-c3ccco3)nc3sc4c(NCCN5CCOCC5)ncnc4c23)CO1	-3%	21%	4%	?	-12%	?	?	1%
O=C(COC(=O)/C=C/c1ccc(OC(F)F)cc1)NC1CCCCCCC1	-2%	2%	·	·	·	15%	?	5%
COc1cccc(/C=N\n2c(C)nnc2C)c1OC	-3%	-4%	-3%	-7%	-3.6%	-1%	?	-2%
COc1ccc(-c2noc(CSc3nc4ccccc4c(=O)n3-c3ccccc3)n2)cc1OC	21%	4%	8%	12%	-1.2%	?	-1%&-1%	?
O=C(Nc1ccccc1)NC(Cc1ccc(O)cc1)C(=O)O (centres undefined)	13%	0%	2%	·	·	-13%	17%[46.1 µM]	11%[46.1 µM]
O=C(CN1C(=O)C2C3C=CC(C3)C2C1=O)Nc1nncs1 (centres undefined)	-12%	1%	-5%	·	·	-10%	0%[46.1 µM]	5%
Cc1cc(C)c(NC(=O)Cn2c(=O)n(Cc3ccccc3)c(=O)c3c(C)c(C(=O)N(C)C)sc32)c(C)c1	·	·	·	?	4.0%	?	·	3%[46.1 µM]
O=S(=O)(NCCCO)c1ccc2c(c1)Cc1cc(S(=O)(=O)NCCCO)ccc1-2	7%	0%	-3%	7%	3.3%	4%	4%&4%	7%
CCCCCCOC(=O)Cc1c(C)nc(N)[nH]c1=O	-11%	1%	1%	·	·	0%	13%[46.1 µM]	10%
O=C(O)CCC(NS(=O)(=O)c1ccc(N2CCCC2=O)cc1)C(=O)O (centres undefined)	-13%	13%	-4%	5%	1.6%	·	3%	-12%
CCOc1ccc(Nc2nc3ccccc3n2C)cc1	1%	·	·	·	·	37%[activator]	13%	-1%
COc1ccc(CCNC(=O)C2CCC(=O)N2Cc2ccccc2Cl)cc1OC (centres undefined)	-16%	0%	4%	·	·	7%	·	·
Cc1occc1C(=O)NNC(=O)C(c1ccccc1)c1ccccc1	7%	6%	19%	4%	7.7%	-12%	-1%	5%
Cc1ccc(C(=O)N2CCCCC2C(=O)O)cc1S(=O)(=O)N1CCCCC1 (centres undefined)	-1%	-1%	·	·	·	0%	8%	?
Cn1[nH]cc(C=NC(N)=O)c1=O	-10%	·	·	·	·	-9%	3%	19%
CCOc1ccc(OC(=O)c2sc3ncn(Cc4cccc(F)c4)c(=O)c3c2C)cc1	·	·	·	-12%	-0.1%	-22%	·	?
COc1ccc(-c2noc(-c3ccc(N4CCCC4)c([N+](=O)[O-])c3)n2)cc1OC	·	·	·	-3%	-2.8%	-27%	3%[46.1 µM]	5%[46.1 µM]
Cc1ccccc1OC(C)C(=O)N1CCC(Cc2ccccc2)CC1 (centres undefined)	15%	1%	-34%	·	·	-25%	-19%[46.1 µM]	6%[46.1 µM]
CN(C)C(=O)CSc1ncnc2scc(-c3ccccc3)c12	-2%	1%	·	·	·	-16%	3%[46.1 µM]	-3%
CCN(C(=O)COC(=O)c1ccccc1Nc1cccc(C)c1C)C1CCS(=O)(=O)C1 (centres undefined)	30%	-3%	9%	?	-4.8%	-4%	13%[46.1 µM]	-2%
CCCN(CC1CC1)c1nc(N)c2c(N)nc(OC)cc2c1C#N	38%	0%	3%	3%	-16%	?	?	-20%
CCc1ccc(CNC(=O)c2cnc3sc(N(CC)CC)nn3c2=O)cc1	·	·	·	?	-11%	-20%	·	?
Cc1ccc(C(=O)Nc2ccccc2C(=O)O)cc1S(=O)(=O)N1CCCCCC1	·	·	·	-6%	-10%	-12%	·	?
C/C(=N\NC(=O)c1c(Cl)cnn1C)c1cccc(NC(=O)C(C)C)c1	16%	0%	-6%	-1%	-1.6%	-17%	-33%	-1%
COc1cc(C(=O)NCC(c2ccco2)S(=O)(=O)c2ccccc2)cc(OC)c1OC (centres undefined)	·	·	·	-6%	-1.7%	-11%	·	13%[46.1 µM]
CCCCn1nc(NC(=O)c2cccc(Cl)c2)c2cc3cccc(C)c3nc21	·	·	·	-3%	-2.1%	-18%	0%[46.1 µM]	27%[46.1 µM]
CCc1cc2ccccc2nc1SCC(=O)Nc1cc(OC)c(OC)cc1C(=O)O	-2%	21%	26%	?	-16%	0%	7%	1%
CCC(C)C(=O)Nc1cc(Cl)ccc1C(=O)O (centres undefined)	14%	0%	·	·	·	-19%	7%[46.1 µM]	16%[46.1 µM]
CC(NS(=O)(=O)c1ccc(CCC(=O)N2CCN(C)CC2)cc1)c1ccccc1 (centres undefined)	1%	0%	3%	-7%	4.3%	9%	1%	-18%
CCOC(=O)C1CCN(S(=O)(=O)c2ccc3c(c2)N(C(C)=O)CCO3)CC1	0%	28%	8%	·	·	-7%	-20%[46.1 µM]	1%[46.1 µM]
COc1ccc(S(=O)(=O)Nc2cc(Cl)ccc2OC)cc1	?	-10%	-55%	13%	-8.1%	40%[activator]	?	?
CN(C)C(=S)Nc1ccc(Br)cc1Cl	10%	0%	-1%	·	·	11%	14%[46.1 µM]	-16%[46.1 µM]
O=C(CN(C(=O)CCC(=O)Nc1ccccn1)c1ccc(F)cc1)NCc1ccco1	-5%	1%	?	·	·	2%	6%[46.1 µM]	4%[46.1 µM]
CCC(CC)C(=O)Nc1nc2c(s1)CC(C)CC2 (centres undefined)	·	·	·	4%	-3.0%	-7%	-24%[46.1 µM]	13%[46.1 µM]
O=C(NCc1cccnc1)c1ccc(-c2cc3ccccc3oc2=O)cc1	3%	0%	1%	·	·	-6%	·	·

# The order is random, and some 4.5% of all compounds hit somewhere here.
